# CBX7 inh: blocks human CBX7 binding to H3K27me3 peptide; O95931; AlphaScreen His6-CBX7 / biotin-H3K27me3 peptide binding; stronger effect = lower value; normalised signal (fraction of DMSO) (no concentration beside the values); hit rate 1.1% among 66,000; in the data active means normalised signal below about 0.5;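 further: 100 nL library stock added to about 20 µL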
# Target sequence (O95931 whole entry, looked up): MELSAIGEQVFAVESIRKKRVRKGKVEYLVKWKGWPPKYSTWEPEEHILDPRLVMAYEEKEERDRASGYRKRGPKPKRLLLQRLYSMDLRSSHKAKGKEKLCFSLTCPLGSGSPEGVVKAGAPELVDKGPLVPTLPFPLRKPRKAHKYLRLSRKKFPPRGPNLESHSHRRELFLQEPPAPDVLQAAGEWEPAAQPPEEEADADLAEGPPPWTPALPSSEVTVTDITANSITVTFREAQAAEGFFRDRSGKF
# CBX7 inh z-score: recorded beside CBX7 inh, whose call it bears; z-score; measured here: z-score of CBX7 signal; some inactives read as strong as hits; reference of the scale not given here;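 same signal on another scale; lower means less binding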
# Numbers without * were called inactive. Some of the compounds tested; count on the stated rates, not on these rows.
molecule	CBX7 inh z-score	CBX7 inh
Cc1ccc2c(c1)-c1c(cnn1CC(=O)N1CCCC(C)C1)CO2 (centres undefined)	0.587	1.02
Cn1c2ccccc2c2c(C(=O)NCc3ccc4c(c3)OCO4)cn(C3CCCC3)c(=O)c21	-3.49	0.859
CCN(CCNC(=O)c1cc(C)nn1-c1ccccc1)c1ccccc1	1.03	1.07
O=C(Nc1nnc(CCS(=O)(=O)c2ccc3ccccc3c2)s1)c1ccc(Cl)cc1	4.18	1.47
COc1cccc(-c2nc3cc(N)ccc3o2)c1	3.7	1.12
COc1cccc(C2CC(=O)Nc3cc4c(cc32)OCO4)c1OC(C)C (centres undefined)	-2.67	0.792
Cc1cccc(-n2c(Cc3cc(=O)[nH]c(=O)[nH]3)nnc2SCC(=O)Nc2ccc(F)cc2)c1	1.49	1.04
Cc1ccc(CC2C(=O)N(c3ccccc3)C(=O)C2C)cc1 (centres undefined)	1.19	1.16

# The last three records of the section before open the next one:
molecule	CBX7 inh z-score	CBX7 inh
COc1cccc(C2CC(=O)Nc3cc4c(cc32)OCO4)c1OC(C)C (centres undefined)	-2.67	0.792
Cc1cccc(-n2c(Cc3cc(=O)[nH]c(=O)[nH]3)nnc2SCC(=O)Nc2ccc(F)cc2)c1	1.49	1.04
Cc1ccc(CC2C(=O)N(c3ccccc3)C(=O)C2C)cc1 (centres undefined)	1.19	1.16
COc1ccc2c(c1)CCc1sc(NC(=O)c3ccc(OC)c(OC)c3)nc1-2	-0.122	0.995
CCCNC(=O)CN1C(=O)COc2ccc(S(=O)(=O)N3CCC(C)CC3)cc21	-0.336	0.99
Cc1ccc(-c2cc(C(=O)NCCN3CCCCCC3)c3ccccc3n2)cc1C	0.07	1.01
O=C(Nc1ccc(F)cc1)c1cnc(Nc2ccc(F)cc2)c2ccccc12	0.361	1.03
Cc1cccc(OCc2nnc(NC(=O)c3ccc(Br)cc3)s2)c1C	0.507	1.12
CCOC(=O)c1c(C)n(CC(C)C)c2c1cc(O)c1ccccc12	-0.379	0.963
O=C(CC1Oc2ccccc2NC1=O)Nc1ccc(Cl)cc1 (centres undefined)	4.36	1.23
COc1cccc(NC(=O)N(CCC(C)C)C2CCN(C(C)C)CC2)c1	-1.25	0.975
COc1ccc(NC(=O)C2CCC(CNS(=O)(=O)c3cccc4cccnc34)CC2)cc1 (centres undefined)	-1.65	0.861
COc1cc(OC)c(OC)cc1/C=C/c1ccc2cccc(OCc3ccccc3)c2n1	2.5	1.21
COc1ccc(Nc2nc(-c3c(C)nc4ncccn34)cs2)cc1	-0.272	0.77
Cc1ccc(NC(=O)c2cnc3scc(C)n3c2=O)cc1F	-0.168	0.993
CCCCNC(=O)c1cnc(Nc2ccccc2OC)c2ccccc12	1.05	1.13
Cc1nn(-c2ccc(Cl)cc2Cl)c(=O)c2ccccc12	1.13	1.03
CC(C)CCNC(=O)CC1C(=O)N(Cc2ccccc2)C(C)c2nc3ccccc3n21 (centres undefined)	1.43	1.03
Cc1cc(C)nc(Nc2ncc(O)n2-c2ccc(Cl)cc2)n1	-0.537	0.98
COc1cc(OC)cc(-c2nnc(SCC(=O)N3CCC(C)CC3)o2)c1	-0.802	0.97
Clc1cccc(-c2nc(-c3ccccn3)no2)c1	-0.538	0.973
Cc1cccc(NC(=O)c2n[nH]c(=O)c3ccccc23)n1	0.542	1.09
Cc1cc(=O)n2nc(N3CCC(C(=O)NC4CC4)CC3)sc2n1	1.59	1.03
COc1ccccc1-c1cc(C(=O)Nc2c(C)nn(Cc3ccc(Cl)c(Cl)c3)c2C)no1	-3.68	0.862
CCOC(=O)c1cnc2cc(Cl)c(OC)cc2c1Nc1ccc(F)c(Cl)c1	-0.421	0.625
COc1ccc(C(=O)Nc2cc(-c3nn4c(C)nnc4s3)ccc2C)cc1	-0.748	0.975
O=C(CCN1C(=O)COc2ccccc21)N1CCN(Cc2ccccc2)CC1	-0.422	0.986
CN(Cc1ccccc1)C(=O)C1CCC(CNS(=O)(=O)c2cccc3cccnc23)CC1 (centres undefined)	-0.181	0.993
C#CCN1C(=O)C(O)(CC(=O)c2ccc(CC)cc2)c2cc(Br)ccc21 (centres undefined)	-0.201	0.822
O=C(NC1CCCCC1)c1ccc(NC2=NC3CS(=O)(=O)CC3S2)cc1 (centres undefined)	1.21	1.16
Cc1ccc(NS(=O)(=O)c2ccc3c(c2)CCC(=O)N3)cc1F	-0.119	0.997
COc1ccc(-c2cn(-c3ccc(Cl)cc3)c(=O)[nH]2)cc1	0.108	1
Cc1ccc(C)c(CN2C(=O)c3ccccc3Sc3ccc(C(=O)NC4CC4)cc32)c1	-1.59	0.966
CCOC(=O)c1cc(-c2ccccc2)n(CCC(=O)NCCc2ccc(C)cc2)c1C	-0.134	0.993
CCOC(=O)N1CCN(c2nnc(Cc3cccnc3)c3ccccc23)CC1	0.417	1.01
COc1ccc(C(=O)NCC2(c3ccccc3)CCOCC2)c(OC)c1	-0.219	0.905
CC1CCCCN1C(=O)CSc1nnc(-c2ccccc2Cl)o1 (centres undefined)	2.22	1.05
CCCCNC(=O)CC1C(=O)N(Cc2ccccc2)C(C)c2nc3ccccc3n21 (centres undefined)	-2.84	0.815
CCOC(=O)c1cnc2c(C)cc(C)cc2c1Nc1ccc(C)cc1C	2.21	1.23
CC(C)N1C(=O)N(c2ccc(F)cc2)C(=O)C1CC(=O)Nc1ccccc1 (centres undefined)	0.929	1.02
Cc1ccc(-c2nc(-c3ccccc3)c3ccccn23)cc1	5.64	1.2
O=C1CC(N2CCN(C/C=C/c3ccccc3)CC2)C(=O)N1c1ccc(F)cc1 (centres undefined)	-2.19	0.857
COc1ccc(-c2[nH]c(-c3ccccc3)nc2SCC(=O)Nc2ccc(F)cc2)cc1	-0.792	0.983
CCOC(=O)c1cnc2c(C)c(Cl)ccc2c1Nc1ccc(Cl)cc1	0.145	1.06
Cc1cccc(NC(=O)c2oc3ccc(S(=O)(=O)N4CC(C)CC(C)C4)cc3c2C)c1C (centres undefined)	0.125	1
CCCCCCCNC(=O)C1CC(=O)Nc2ccccc21 (centres undefined)	0.0839	1.01
CCOc1ccc(N2C(=O)CC(N3CCN(C(c4ccccc4)c4ccccc4)CC3)C2=O)cc1 (centres undefined)	-2.2	0.861
Cc1ccc(-c2nc(CS(=O)(=O)CC(=O)NCCN3CCOCC3)c(C)o2)cc1	-0.0515	0.975
O=C(NCCc1ccc(Cl)cc1)C1(NS(=O)(=O)c2cccc3cccnc23)CCCCC1	1.2	1.03
Cc1ccc2cc(CCNS(C)(=O)=O)c(=O)[nH]c2c1	-0.563	0.956
CCCCCC(O)(c1ccc(OCC)cc1)C(CN1CCOCC1)c1ccccc1 (centres undefined)	-2.28	0.784

# Complete entries, looked up by structure:
# CCCCCC(O)(c1ccc(OCC)cc1)C(CN1CCOCC1)c1ccccc1 (centres undefined) across the screens: CBX7 inh z-score: -2.28; CBX7 inh: 0.784
# CCCCCCCNC(=O)C1CC(=O)Nc2ccccc21 (centres undefined) across the screens: CBX7 inh z-score: 0.0839; CBX7 inh: 1.01

# New compounds follow
molecule	CBX7 inh z-score	CBX7 inh
COc1ccc2c(C)cc(N3CC(C)OC(C)C3)nc2c1 (centres undefined)	0.396	1.03
CC1CCCCN1C(=O)c1ccc2c(c1)N(Cc1ccc(F)cc1)C(=O)c1ccccc1S2(=O)=O (centres undefined)	-1.33	0.944
Cc1cccc(N2CCN(C(=O)Cn3nc(Cc4cccnc4)c4ccccc4c3=O)CC2)c1C	-0.656	0.503
CCOC(CCNC(=O)c1cnc(Nc2ccccc2OC)c2ccccc12)OCC	5.19	1.13
Cc1ccccc1N1C(=O)C2C3C=CC(C3)C2(C)C1=O (centres undefined)	-2.11	0.866
COc1cccc(OC)c1C(=O)Nc1nnc(C2CCCCC2)s1	-0.952	0.973
O=C(Cc1ccc(NC2=NC3CS(=O)(=O)CC3S2)cc1)NC1CCCc2ccccc21 (centres undefined)	1.9	1.07
CN(C)CC(=O)N1c2ccccc2CCc2ccc(NC(N)=O)cc21	0.424	1.02
Cc1ccc(N2C(=O)c3ccc(S(=O)(=O)c4ccc(C(=O)O)cc4)cc3C2=O)cc1C	-0.462	0.986
CCOc1cccc(C(=O)Nc2cccc(-c3nc4ccccc4[nH]3)c2C)c1	-0.254	0.993
CCCN(C(=O)Cn1ncc2c1-c1cc(C)ccc1OC2)c1ccc(C(C)C)cc1	-1.35	0.949
CCCOc1ccc(Cc2nc3ccccc3[nH]c2=O)cc1	2.03	1.08
COc1ccc(OC)c(S(=O)(=O)n2c(/C=C/c3ccccc3Cl)nc3ccccc32)c1	4.29	1.21
CCC1=Nc2cc(C(=O)NCCN3CCOCC3)ccc2Sc2ccc(Br)cc21	-3.02	0.941
CCCCCOc1ccc(C(=O)N(Cc2ccc(OC)cc2)C2CCS(=O)(=O)C2)cc1 (centres undefined)	-0.173	0.826
O=C(CCS(=O)(=O)c1nc(-c2cccs2)cc(C(F)(F)F)n1)Nc1ccc(F)c(Cl)c1	1.7	1.07
CCc1ccc(NC(=O)c2cc3nc(-c4ccc(C)cc4)cc(C(F)(F)F)n3n2)cc1	0.187	1.01
O=C(O)c1cc(-c2cccc(O)c2)nc2ccccc12	0.365	1.03
Cc1ccc(Nc2nc(-c3ccccc3)cs2)cc1C	-2.64	0.828
Oc1ccc(-c2nc3cnccn3c2Nc2ccc(Cl)cc2)cc1	4.32	1.1
COc1ccc(C)cc1NC(=O)c1c(-c2c(Cl)cccc2Cl)noc1C	-0.546	0.965
Cc1ccc(N2C(=O)CC(NCCc3ccccc3)C2=O)cc1Cl (centres undefined)	-0.475	0.956
COc1ccc2cc(CCNC(=O)c3cccc(F)c3)c(=O)[nH]c2c1	-0.262	0.99
Cc1nc2c(C(=O)NCc3ccc4c(c3)OCO4)cnn2c(C)c1Cc1ccc(Cl)cc1	-6.07	0.861
COc1ccccc1CNC(=O)c1ccc2c(c1)nc(C)n2-c1ccccc1OC	-1.54	0.937
CC1CCN(S(=O)(=O)c2cn(CC(=O)O)c(=O)c3ccccc23)CC1	0.0422	1.04
Cc1ccc(N2C(=O)c3ccccc3C2Nc2ccc(F)c(Cl)c2)nc1 (centres undefined)	1.06	1.03
COc1ccccc1OCCOc1cccc(-c2nc3sc4c(c3c(=O)[nH]2)CCCC4)c1	-0.764	0.964
O=C(Nc1ccc(OC(F)(F)F)cc1)C1CCCN(S(=O)(=O)c2cnc[nH]2)C1 (centres undefined)	0.658	1.02
COc1cccc(N2CCN(C(=O)c3ccc4nc(N5CCOCC5)sc4c3)CC2)c1	0.0389	1.02
COCCCNC(=O)CSc1nc(-c2ccc(OC)cc2)[nH]c1-c1ccccc1	-1.53	0.91
CC(=O)c1ccc(N2C(=O)C3C4C=CC(C4=C(C)C)C3C2=O)cc1 (centres undefined)	-2.05	0.87
CCCCSc1oc(-c2cccs2)nc1S(=O)(=O)c1ccc(C)cc1	0.0268	1.02
CC(=O)N(Cc1ccc2c(c1)OCO2)c1ccc2nc(-c3ccc(C)cc3)oc2c1	-0.816	0.928
COc1ccc(-n2c(Cc3cc(=O)[nH]c(=O)[nH]3)nnc2SCc2ccccc2C)cc1	-1.48	0.903
O=C(Nc1nc2ccccc2n1CCN1CCOCC1)c1nn(-c2ccccc2)cc1-c1ccccc1	-1.85	0.892
c1ccc(CN2C3=NCCN3c3ccccc32)cc1	2.95	1.1
COc1cc2nc(/C=C/c3ccccc3F)n(-c3ccc(C)cc3)c(=O)c2cc1OC	0.608	1.01
COc1cc2c(cc1OC)C(C)N(C(=O)Cn1ncc3c1-c1ccccc1OC3)CC2 (centres undefined)	0.0572	1.01
CCC(Cc1ccccc1)NC(=O)CN1C(=O)COc2ccc(S(=O)(=O)N3CCC(C)CC3)cc21 (centres undefined)	-0.665	0.981

# 3 entries from above, ordered by the number in CBX7 inh z-score, rising.
SMILES | CBX7 inh z-score
O=C(Nc1nc2ccccc2n1CCN1CCOCC1)c1nn(-c2ccccc2)cc1-c1ccccc1 | -1.85
COc1ccc(-n2c(Cc3cc(=O)[nH]c(=O)[nH]3)nnc2SCc2ccccc2C)cc1 | -1.48
CC(=O)N(Cc1ccc2c(c1)OCO2)c1ccc2nc(-c3ccc(C)cc3)oc2c1 | -0.816

# Remaining list, next part
molecule	CBX7 inh z-score	CBX7 inh
CCOc1ccc(NC(=O)N(C2CCCC2)C2CCN(C(C)=O)CC2)cc1	-1.25	0.975
CCn1c(C(=O)N2CCC(C(=O)NCCCN3CCOCC3)CC2)cc2sccc21	0.445	1.1
CC(NC(=O)CN1C(=O)CSc2ccc(S(=O)(=O)N3CCCCC3)cc21)c1ccccc1 (centres undefined)	-0.656	0.985
Cc1ccc(Nc2ncc(Cc3cccc(Cl)c3Cl)s2)cc1	-0.0267	0.994
O=C(C1=CCN(S(=O)(=O)c2ccc(F)cc2)CC1)N1CCOCC1	0.897	1.02
Cc1nc2c(C(=O)N3CCC(Cc4ccccc4)CC3)c[nH]n2c(=O)c1Cc1ccc(Cl)cc1	0.894	1.09
COc1ccccc1-c1cc2nc(C)c(CCC(=O)Nc3ccc(C)cc3C)c(C)n2n1	-1.9	0.884
Cc1cc2ccccc2c(=O)n1CC(=O)NCC(=O)Nc1ccc(F)cc1	1.09	1.11
Cc1[nH]c2ccccc2c1CCNC(=O)c1c(F)cccc1F	1.07	1.07
Cc1ccc(NC(=O)C(=O)NCCCN2CCOCC2)c(C)c1	0.405	1.01
CCN(CC)c1ccc(NC(=O)c2c(-c3ccccc3)noc2C)c(C)c1	-5.87	0.79
Cc1cc(C)c2c(n1)SCC(=O)N2CC(=O)NC(C)c1ccccc1 (centres undefined)	0.982	1.02
CCCn1c(COc2ccccc2)nc2ccccc21	0.554	1.02

# High-throughput results as filed in PubChem.
